# Screening results (PubChem)
# YB-1 expression – YB-1 expression inhibition; U2OS, qRT-PCR YB-1 vs CDIP delta delta Cp, 16 h; active compounds read high; zero = DMSO, each unit about twofold; delta delta Cp (YB-1 minus CDIP) (test concentration not listed); 30,000 tested, 0.37% active; AID 434959;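 active means delta delta Cp rounded down to an integer at or above 3, about 3 SD of DMSO wells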;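 further: higher means less YB-1 transcript or more CDIP transcript relative to DMSO; stock transfer was 100 nL into about 100 µL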
# MITF inh – MITF inhibition | TRPM1 promoter luciferase, luminescence, 24 h | inhibition, % (no concentration beside the values) | 37,000 tested, 0.28% active;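 active means most replicates at 85% or more, or half of them and the mean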;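 further: human melanocyte line stably carrying TRPM1 promoter luciferase reporter; 0% = vehicle wells and 100% = a positive control; the first replicate is given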
# Hedgehog inh – Sonic Hedgehog pathway inhibition; Shh-LIGHT2 Gli-luciferase reporter, 30 h; inhibition, % (concentration not given with the values); 22,000 tested, 2.1% active; AID 2313;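 active means replicate mean of 65% or more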;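 further: pathway switched on by Shh-conditioned medium diluted 1 in 25 in low serum; 100 nL library stock added to about 40 µL; 0% = median of neutral wells and 100% = positive control level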
# PD-1 reversal – reversal of PD-1 mediated T-cell inhibition; primary human CD4 T cells, PD-L1 beads, CellTiter-Glo 96 h; AID 2316; activation, % (concentration not given with the values); 29,000 tested, under 10 active;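 active means replicate mean of 50% or more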;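 further: 0% = median vehicle wells and 100% = positive control; 100 nL library stock added to about 50 µL; numbers are from one replicate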
# The depositor's hits bear a star; x = no result given. Some of the compounds tested, so the mix of outcomes need not match the whole.
SMILES,YB-1 expression,MITF inh,Hedgehog inh,PD-1 reversal
C[C@@H]1CN([C@@H](C)CO)C(=O)c2cccc(NS(=O)(=O)c3cn(C)cn3)c2O[C@@H]1CN(C)S(=O)(=O)c1cn(C)cn1,0.022,1,17,x
COc1ccc(S(=O)(=O)N(C)C[C@H]2Oc3ccc(NC(=O)NC(C)C)cc3C(=O)N([C@H](C)CO)C[C@H]2C)cc1,0.13,-8,-5,0.2
O=C(COC(=O)c1c(C(F)(F)F)cccc1C(F)(F)F)c1ccc(Cl)cc1,0.17,-8,-2,-7.3
Cc1noc(C)c1NC(=O)N(C)C[C@H]1Oc2ccc(NC(=O)CCC(F)(F)F)cc2C(=O)N([C@H](C)CO)C[C@H]1C,-0.18,-3,x,0.6
O=C(CC1C(=O)N(c2ccccc2)C(=O)N1Cc1cccs1)Nc1ccccc1 (configuration not stated),x,-11,x,1.2
COc1ccc(NC(=O)Nc2cccc3c2O[C@@H](CN(C)Cc2ccc4c(c2)OCO4)[C@@H](C)CN([C@H](C)CO)C3=O)cc1,1.2,0,-21,0.5
Cc1noc(C)c1NC(=O)Nc1ccc2c(c1)C(=O)N([C@H](C)CO)C[C@H](C)[C@H](CN(C)Cc1ccc(Oc3ccccc3)cc1)O2,-0.24,3,24,-0.6
O=C(COc1cccc2ccccc12)Nc1cccnc1,x,18,x,0.0
Cn1cnnc1SC1CCCCC1NS(=O)(=O)c1ccccc1 (configuration not stated),x,2,x,2.0
C[C@@H]1CN([C@@H](C)CO)C(=O)Cc2cc(NC(=O)CCN3CCOCC3)ccc2O[C@@H]1CN(C)C(=O)NC1CCCCC1,0.11,4,-5,1.5
Cc1ccc(S(=O)(=O)N(C)C[C@@H]2Oc3ccc(NC(=O)Cc4ccccc4)cc3C(=O)N([C@@H](C)CO)C[C@@H]2C)cc1,-0.067,4,x,0.6
COc1ccc(S(=O)(=O)Nc2ccc3c(c2)CC(=O)N([C@@H](C)CO)C[C@H](C)[C@@H](CN(C)C)O3)cc1,-0.57,22,x,1.4
C[C@H]1CN([C@@H](C)CO)C(=O)Cc2cc(NS(=O)(=O)c3ccccc3)ccc2O[C@@H]1CN(C)C(=O)Nc1ccc2c(c1)OCO2,-0.46,-1,x,x
O=C(c1ccco1)N1N=C2c3ccccc3CCC2C1c1ccc(F)cc1 (configuration not stated),-0.013,40,34,0.1
C=CCN(CC=C)C(=O)Cc1ccccc1OC,0.063,0,-6,-2.1
O=C(CN1C(=O)c2ccccc2S1(=O)=O)Nc1cc(Cl)ccc1Oc1ccccc1,x,-1,x,-2.7
C[C@H](CO)N1C[C@H](C)[C@@H](CN(C)Cc2ccc(Oc3ccccc3)cc2)Oc2c(NS(C)(=O)=O)cccc2C1=O,-0.35,-11,6,-1.3
C[C@@H]1CCCCO[C@H](CN(C)Cc2ccccc2)[C@@H](C)CN([C@H](C)CO)C(=O)c2cc(NC(=O)CCC(F)(F)F)ccc2O1,0.059,-7,0,x
COc1ccc([C@@H]2CC(=O)c3c(O)cc(O)cc3O2)cc1O,0.0037,-107,-53,1.8
CCCOC(=O)Nc1cccc(C(=O)OCCC)c1,-0.39,-96,-106,-0.2

# Compound profiles (already shown).
# Shown for C=CCN(CC=C)C(=O)Cc1ccccc1OC = YB-1 expression = 0.063; MITF inh = 0; Hedgehog inh = -6; PD-1 reversal = -2.1
# Shown for Cc1ccc(S(=O)(=O)N(C)C[C@@H]2Oc3ccc(NC(=O)Cc4ccccc4)cc3C(=O)N([C@@H](C)CO)C[C@@H]2C)cc1 = YB-1 expression = -0.067; MITF inh = 4; Hedgehog inh = x; PD-1 reversal = 0.6

# Next part:
SMILES,YB-1 expression,MITF inh,Hedgehog inh,PD-1 reversal
C[C@@H]1CCCCO[C@@H](CN(C)S(=O)(=O)c2ccc(Cl)cc2)[C@@H](C)CN([C@H](C)CO)C(=O)c2cc(NS(=O)(=O)c3ccc(Cl)cc3)ccc2O1,-0.85,53,71*,x
C(=NCc1ccco1)c1cn(-c2ccccc2)nc1-c1ccccc1,-0.19,-8,-90,-5.2
C[C@@H]1CN([C@@H](C)CO)C(=O)Cc2cc(NC(=O)Cc3cn(C)c4ccccc34)ccc2O[C@@H]1CN(C)Cc1ccc2c(c1)OCO2,0.4,20,-4,x
CCn1c(SCC(=O)c2ccc(OC)cc2)nnc1-c1cc2cc(Br)ccc2o1,x,-3,x,-1.0
C[C@H](CO)N1C[C@H](C)[C@@H](CN(C)C(=O)Nc2cccc3ccccc23)Oc2ccc(N(C)C)cc2C1=O,0.16,4,-4,-1.3
CC(=O)OC(CCCCc1ccc(O)c(O)c1)CCc1ccc(O)c(O)c1 (configuration not stated),2.3,10,-18,-2.4
COc1ccc(CN(C)C[C@@H]2Oc3ccc(NC(=O)NC(C)C)cc3C(=O)N([C@H](C)CO)C[C@H]2C)cc1,0.024,-3,3,x
C[C@@H]1CN([C@H](C)CO)C(=O)c2cc(NC(=O)CCC(F)(F)F)ccc2O[C@H]1CN(C)Cc1ccc(C(F)(F)F)cc1,0.15,13,47,1.5
C[C@@H]1CN([C@@H](C)CO)C(=O)c2cccc(NC(=O)Nc3ccc4c(c3)OCO4)c2O[C@@H]1CN(C)S(=O)(=O)c1ccc(F)cc1,-0.98,-20,-10,-0.7
C[C@H]1CN([C@@H](C)CO)C(=O)c2cc(NC(=O)Nc3ccccc3)ccc2O[C@H]1CN(C)C(=O)Nc1ccc(F)cc1,-0.24,-9,-46,x
COc1ccc(S(=O)(=O)Nc2cccc3c2O[C@@H](CN(C)C(=O)NC2CCCCC2)[C@H](C)CN([C@@H](C)CO)C3=O)cc1,-0.2,-5,-66,x
Cc1noc(C)c1S(=O)(=O)Nc1ccc2c(c1)C(=O)N([C@H](C)CO)C[C@H](C)[C@H](CN(C)C(=O)Nc1ccc(C(F)(F)F)cc1)OCCCC[C@@H](C)O2,0.19,54,100*,-5.5
C[C@@H]1CN([C@H](C)CO)C(=O)c2cc(NS(=O)(=O)c3ccccc3)ccc2O[C@@H]1CN(C)S(=O)(=O)c1ccc(F)cc1,-0.16,3,x,-0.1
C[C@H](CO)N1C[C@H](C)[C@H](CN(C)Cc2ccc(C(=O)Nc3ccccc3N)cc2)Oc2ccc(NS(=O)(=O)c3ccc(F)cc3)cc2CC1=O,0.12,31,x,-2.3
COc1ccc2cc(S(=O)(=O)NCCCN3CCOCC3)ccc2c1,x,9,x,-0.1
O=C(O)CNS(=O)(=O)c1ccc(Cl)c(Cl)c1,x,1,x,1.7
Nc1ccc(-c2nnc(SCC(=O)Nc3ccc(Br)cc3F)n2-c2ccccc2)cc1,x,11,x,-0.2
O=c1c(Cc2cc(Cl)cc(Cl)c2O)c(O)nc2n1CCCS2,-0.044,-13,x,0.5
Cn1cnnc1SCC(=O)Nc1ccc(Cl)cc1,x,-17,x,2.4
CC(=O)Nc1ccc(Cl)c(Cl)c1,-0.015,-4,31,0.1

# Random excerpt: five records from the list
SMILES,YB-1 expression,MITF inh,Hedgehog inh,PD-1 reversal
CC(=O)Nc1ccc(Cl)c(Cl)c1,-0.015,-4,31,0.1
Nc1ccc(-c2nnc(SCC(=O)Nc3ccc(Br)cc3F)n2-c2ccccc2)cc1,x,11,x,-0.2
O=C(O)CNS(=O)(=O)c1ccc(Cl)c(Cl)c1,x,1,x,1.7
Cc1noc(C)c1S(=O)(=O)Nc1ccc2c(c1)C(=O)N([C@H](C)CO)C[C@H](C)[C@H](CN(C)C(=O)Nc1ccc(C(F)(F)F)cc1)OCCCC[C@@H](C)O2,0.19,54,100*,-5.5
C[C@@H]1CN([C@H](C)CO)C(=O)c2cc(NS(=O)(=O)c3ccccc3)ccc2O[C@@H]1CN(C)S(=O)(=O)c1ccc(F)cc1,-0.16,3,x,-0.1

# Continuation:
SMILES,YB-1 expression,MITF inh,Hedgehog inh,PD-1 reversal
COc1ccc(NC(=O)COc2ccccc2OC)cc1OC,x,-31,x,3.1
COc1ccc(C)cc1NC(=O)NCCc1ccc(OC)c(OC)c1,x,7,x,-3.8
COc1ccc(CN(C)C[C@H]2Oc3c(NC(=O)C4CCCCC4)cccc3C(=O)N([C@H](C)CO)C[C@H]2C)cc1,-0.11,-4,-4,-0.3
C[C@@H]1CN([C@H](C)CO)C(=O)c2cccc(NC(=O)Nc3ccc(C(F)(F)F)cc3)c2O[C@H]1CN(C)Cc1ccc(-c2ccccc2)cc1,0.61,10,-4,x
CCn1c(SCC(=O)c2ccc(OC)cc2)nnc1-c1ccc(Cl)cc1,x,-17,x,0.1
C[C@@H]1CN([C@@H](C)CO)C(=O)c2cccc(NS(=O)(=O)c3ccccc3)c2O[C@H]1CN(C)Cc1ccc(-c2ccccc2)cc1,0.21,3,-27,-1.8
C[C@H](CO)N1C[C@H](C)[C@H](CN(C)Cc2ccccc2)Oc2ccc(N(C)C)cc2CC1=O,-0.21,3,-9,x
COc1ccc(NC(=O)Nc2ccc3c(c2)C(=O)N([C@@H](C)CO)C[C@@H](C)[C@@H](CN(C)C(=O)Nc2c(C)noc2C)O3)cc1,0.088,-6,-18,0.4
C[C@@H]1CN([C@H](C)CO)C(=O)Cc2cc(NC(=O)C3CCCCC3)ccc2O[C@H]1CN(C)S(=O)(=O)c1ccc(F)cc1,0.3,3,5,-0.5
C[C@@H]1CCCCO[C@H](CN(C)S(=O)(=O)c2ccccc2)[C@@H](C)CN([C@H](C)CO)C(=O)c2cc(NC(=O)CCCCCC(=O)Nc3ccccc3N)ccc2O1,0.5,-6,x,-0.2
CCOC(=O)c1nnn2c1nc(SCc1ccc(F)cc1)c1ccccc12,-0.079,6,34,0.1
CC(C)NC(=O)N(C)C[C@H]1Oc2ccc(N(C)C)cc2CC(=O)N([C@@H](C)CO)C[C@@H]1C,0.1,1,-45,0.6
COc1ccc(NC(=O)N(C)C[C@@H]2Oc3c(cccc3N(C)C)C(=O)N([C@H](C)CO)C[C@H]2C)cc1,-0.046,6,-11,x
C[C@@H]1CN([C@H](C)CO)C(=O)Cc2cc(NC(=O)Nc3cccc4ccccc34)ccc2O[C@@H]1CN(C)Cc1ccc(C(F)(F)F)cc1,0.25,13,6,-2.9
Cc1ccc(S(=O)(=O)Nc2ccc3c(c2)CC(=O)N([C@@H](C)CO)C[C@@H](C)[C@@H](CN(C)C(=O)Nc2c(C)noc2C)O3)cc1,0.14,-6,-23,1.2
NC(=O)c1c(NC(=O)COc2cccc(C(F)(F)F)c2)sc2c1CCC2,x,6,x,2.4
CC1(C)CC[C@]2(C(=O)O[C@@H]3O[C@H](CO[C@@H]4O[C@H](CO[C@@H]5O[C@H](CO)[C@@H](O)[C@H](O)[C@H]5O)[C@@H](O)[C@H](O)[C@H]4O)[C@@H](O)[C@H](O[C@@H]4O[C@H](CO)[C@@H](O)[C@H](O)[C@H]4O)[C@H]3O)CC[C@]3(C)C(=CCC4[C@@]5(C)CC[C@H](O)[C@@](C)(C(=O)O)C5CC[C@]43C)C2C1 (some centres not stated),-0.26,-2,-1,-1.4
Cc1ccccc1NC(=O)NCCCN1CCN(C)CC1,x,-18,x,0.4
C[C@H]1CN([C@@H](C)CO)C(=O)Cc2cc(NC(=O)c3ccncc3)ccc2O[C@H]1CN(C)S(=O)(=O)c1cccs1,-0.11,-5,6,0.0
COc1ccc(C)cc1S(=O)(=O)N(C)CC(=O)Nc1ccc(Br)cc1F,x,9,x,1.4
C[C@@H]1CCCCO[C@@H](CN(C)C(=O)CCCN(C)C)[C@@H](C)CN([C@H](C)CO)C(=O)c2cc(NC(=O)c3ccccc3)ccc2O1,9.6*,-11,x,x
Cc1noc(C)c1S(=O)(=O)Nc1ccc2c(c1)CC(=O)N([C@H](C)CO)C[C@H](C)[C@H](CN(C)C(=O)Nc1cccc3ccccc13)O2,-0.12,-1,31,-0.9
Cc1ccc(S(=O)(=O)N(C)C[C@@H]2Oc3ccc(NC(=O)CCN4CCOCC4)cc3CC(=O)N([C@H](C)CO)C[C@@H]2C)cc1,0.093,-5,-7,1.1
C[C@H](CO)N1C[C@H](C)[C@H](CN(C)S(=O)(=O)c2cccs2)Oc2ccc(NC(=O)NC3CCCCC3)cc2C1=O,0.011,-17,x,-0.9
COc1ccc(NC(=O)N(C)C[C@@H]2Oc3c(NC(=O)C4CC4)cccc3C(=O)N([C@H](C)CO)C[C@@H]2C)cc1,0.99,2,-2,2.3
O=C(c1cccs1)N(Cc1ccc(Br)cc1)c1ccc(F)cc1,-0.1,19,35,-1.4
C[C@@H]1CCCCO[C@H](CN(C)S(=O)(=O)c2cccs2)[C@@H](C)CN([C@H](C)CO)C(=O)c2cc(NC(=O)Nc3ccc(C(F)(F)F)cc3)ccc2O1,0.093,10,-36,-3.3
COc1ccc(C(=O)N(Cc2nc(-c3ccc(C)cc3)no2)C2CCCCC2)cc1OC,x,-4,x,1.9
COc1cc(NC(=O)COc2ccc(Br)cc2)ccc1NC(=O)c1cc2ccccc2o1,x,-42,x,0.0
Cc1cccc(C)c1NC(=O)COc1cc(O)c2c(=O)cc(-c3ccccc3)oc2c1,x,51,x,-4.2
COc1ccc(S(=O)(=O)N(C)C[C@@H]2Oc3ccc(NC(=O)C4CC4)cc3C(=O)N([C@@H](C)CO)C[C@@H]2C)cc1,0.37,2,x,-1.3
CC(=O)NCCCN(CCCCN(CCCNC(=O)/C=C/c1ccc(O)cc1)C(C)=O)C(=O)/C=C/c1ccc(O)cc1,0.066,-62,-42,1.9
